High-throughput results (PubChem)
PrP 5UTR inh = inhibition of PrP 5' UTR reporter expression. 0.35% of 340,000 active. AID 488862, 2010. inhibition, % (test concentration not listed). cell-based PrP 5' UTR mRNA reporter, plate reader;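 active = every replicate at 50% or more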;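 note: 0 = median of the neutral control wells; tested in H4 reporter cells; numbers are from one replicate; inactives centre near -14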
Bead autofluor = compound fluorescence in toxin protease inhibitor counterscreen | 3.1% of 360,000 active | AID 624483 | compound autofluorescence counterscreen, microsphere flow cytometry; stronger effect = higher value | fluorescence intensity (concentration not given with the values);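 active = at least 3 SD above the mean of all compounds, about 16000 in these data; inconclusive = too few beads counted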;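 note: 100 nL of 1 mM stock went into each well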
BJeLR lethal = MLPCN primary cell-based screen for lethality selective to Ras in HRASV12 cells; BJeLR (HRASV12) viability, CellTiter-Glo ATP luminescence, 48 h; reference of the scale not given here; inhibition, % (no concentration beside the values); 0.17% of 300,000 active;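 active = replicate mean above 50%; inconclusive = above 50% but judged a plate artefact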;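 note: 50 nL library stock added to about 25 µL; numbers are from one replicate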
RN4220 kill = growth inhibition of S. aureus RN4220, primary screen, OD600; inhibition, % (concentration not given with the values); 0.33% of 330,000 active; AID 1259311, 2017; 16 h;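 active = z-score of -3 or lower and OD600 up to 0.18 on both plates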;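 note: plate controls were untreated cells for no effect and reference antibiotic for full effect; stock transfer was 100 nL into about 80 µL; one replicate is shown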
Mtb hypoxia inh = PubChem AID 1159583 | 0.1% of 300,000 active | fluorescence inhibition, % (test concentration not listed) | M. tuberculosis hypoxia-regulated fluorescent reporter, fluorescence;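 active = 35 to 45% if threefold the growth effect, above 45% if 1.5-fold the growth effect; inactive = the rest, general growth blockers included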;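 note: wells of about 50 µL received 100 nL stock; 0% = vehicle wells and 100% = reference inhibitor wells; whole bacteria with a GFP reporter of the hypoxia response; strong numbers were not always called active; many hits fall short of the cut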
Sa ugtP lethal = growth inhibition of ugtP-null S. aureus, primary screen, RN4220 ugtP deletion, OD600; 16 h; some inactives read as strong as hits; growth inhibition, % (no concentration beside the values); 0.54% of 330,000 active;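 active = z-score under -3 and OD600 up to 0.15 on both plates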;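 note: plate controls were untreated wells for no effect and antibiotic for full effect; wells of about 80 µL received 100 nL stock; the first replicate is given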
Mtb hypoxia inh growth = second read-out of Mtb hypoxia inh, no call of its own (marks repeat the call); growth inhibition, %; measured here: M. tuberculosis growth (absorbance);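 0% = vehicle and 100% = reference antibiotic; read after six days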
* marks the source's active call; other numbers are inactive results; ? = inconclusive; / = not tested or not shown. Compounds as they come; any-hit rate near 4%.

SMILES | PrP 5UTR inh | Bead autofluor | BJeLR lethal | RN4220 kill | Mtb hypoxia inh | Mtb hypoxia inh growth | Sa ugtP lethal
Cc1c(C)c2ccc(O)c(CN3CCCC3)c2oc1=O | -9 | 4168 | -4 | 2.3 | -2 | -2 | 7
O=C(CSc1nnnn1-c1ccccc1)NCC1(N2CCCCC2)CCCCC1 | -15 | 4440 | / | 1.7 | 8 | 2 | 7
COc1ccc([C@@H]2[C@H]3C(=O)N(c4cccc(C(F)(F)F)c4)C(=O)[C@H]3ON2C)cc1 | -17 | 21509* | 3 | 5.1 | -5 | 3 | 4
COc1ccc(/C(O)=C2/C(=O)C(=O)N(CCN3CCOCC3)C2c2ccccn2)cc1OC (configuration not stated) | -14 | 4589 | 9 | 0.3 | / | / | 3
Cc1cc(OC(=O)C(C)(C)C)c([N+](=O)[O-])c(=O)[nH]1 | -10 | 2649 | 2 | 2.5 | 5 | -4 | 6
CCN(CC(=O)Nc1ccc2c(c1)OCO2)Cc1nc2ccccc2c(=O)[nH]1 | -6 | 3036 | -13 | 2.0 | 3 | -1 | 6
COc1ccccc1N1CCN(C(=O)CCc2ccccc2)CC1 | -1 | 3165 | 0 | 4.2 | 2 | 7 | 3
CCN(CC)CCNC(=O)C12CC3CC(CC(C3)C1)C2 | -7 | 3442 | 7 | 2.3 | -5 | -11 | -7
CCC(C)Sc1cc(C(F)(F)F)c(C(=O)Nc2ccc(Cl)cc2)cn1 (configuration not stated) | -27 | 5622 | 4 | 15 | 5 | 14 | 19
CC12CCC(=O)N1C(C(=O)NNC(=O)c1ccc(Br)cc1)CS2 (configuration not stated) | -12 | 2968 | / | 3.5 | 5 | -2 | 8

Next part; it opens with the three that closed the last part.
SMILES | PrP 5UTR inh | Bead autofluor | BJeLR lethal | RN4220 kill | Mtb hypoxia inh | Mtb hypoxia inh growth | Sa ugtP lethal
CCN(CC)CCNC(=O)C12CC3CC(CC(C3)C1)C2 | -7 | 3442 | 7 | 2.3 | -5 | -11 | -7
CCC(C)Sc1cc(C(F)(F)F)c(C(=O)Nc2ccc(Cl)cc2)cn1 (configuration not stated) | -27 | 5622 | 4 | 15 | 5 | 14 | 19
CC12CCC(=O)N1C(C(=O)NNC(=O)c1ccc(Br)cc1)CS2 (configuration not stated) | -12 | 2968 | / | 3.5 | 5 | -2 | 8
N/C(Cc1ccc(Cl)cc1)=N\OC(=O)Cc1ccc([N+](=O)[O-])cc1 | -12 | 2242 | 4 | / | / | / | /
CCCN1CCC(=NNc2ccc(S(=O)(=O)N(CC)CC)cc2[N+](=O)[O-])CC1 | 10 | 2987 | 30 | 3.9 | -6 | 2 | 3
C=CCNC(=O)CC1Nc2c3ccccc3nc(=S)n2C1=O (configuration not stated) | -8 | 3841 | -9 | 6.9 | 4 | 3 | 4
Cc1cc(C)cc(N(CC(=O)Nc2ccc(-c3nc4ccc(C)cc4s3)cc2)S(C)(=O)=O)c1 | -74 | 2744 | -3 | -4.0 | 10 | -5 | 8
CCc1c(C(=O)N2CCN(c3ccccc3F)CC2)[nH]c(C)c1C(C)=O | -16 | ? | -8 | 3.9 | 7 | 13 | -4
COc1cc(OC)cc(C(=O)Nc2c(F)cccc2F)c1 | -28 | 3866 | 12 | -3.3 | 0 | 12 | -12
O=C(NN=C/C=C/c1ccccc1)C1CC1c1ccccc1 (configuration not stated) | / | / | / | -6.8 | 5 | 6 | -21
Cc1cc(C)n2nc(C(=O)N/N=C/c3cn(C)nc3C)nc2n1 | -11 | 5203 | -3 | / | / | / | /
COc1ccccc1N1CCN(Cc2cccs2)CC1 | -8 | 9141 | 0 | -1.4 | 2 | 1 | 1
CC=NNC(=O)c1cc(Br)ccc1O | / | / | / | 6.9 | 2 | 2 | 1
COc1ccc(-c2[nH]ncc2CN2CCCC(C(=O)c3cccc(OC)c3)C2)cc1 (configuration not stated) | -19 | 4774 | 11 | 6.6 | 1 | 0 | 2
COc1ccc(CN2CCC(Oc3ccc(C(=O)N4CCCC4)cc3)CC2)c(F)c1 | -2 | 6158 | 8 | 1.5 | 1 | 4 | 7
CC(=O)c1csc(COc2cc(Cl)cc(Cl)c2)n1 | -27 | 3525 | -2 | 2.3 | -9 | -1 | -2
O=C1c2ccccc2C(=O)N1c1ccc(S(=O)(=O)N2CCCCC2)cc1 | -15 | 3787 | 4 | 2.4 | -4 | -7 | 3
CC(C)Oc1ccccc1/C=N/NC(=O)C1CCCC1 | -30 | 6089 | -1 | / | / | / | /
CC(C)c1ccc(N2C(=O)C(Cl)=C(N3CCOCC3)C2=O)cc1 | -19 | 3121 | -8 | 3.0 | 4 | -5 | 0
O=C(COC(=O)c1ccc(Cl)s1)c1ccc[nH]1 | -20 | 4152 | 1 | 13 | -6 | 0 | 6
Cc1c(/C=N/NC(=O)c2ccc3c(c2)OCO3)cnn1C | -13 | 2934 | 4 | / | / | / | /
Cc1cc(-c2ccc(C)c(S(=O)(=O)N3CC(=O)Nc4ccccc43)c2)on1 | -8 | 5758 | 7 | 2.8 | 6 | 1 | 1
Cc1ccc2nc(C)cc(SCC(=O)NN=Cc3ccco3)c2c1 | / | / | / | 0.0 | 20 | 20 | -3
C=CCn1c2c(c(=O)[nH]c1=S)CN(C(C)c1ccccc1)CN2 (configuration not stated) | -12 | 2894 | 5 | 4.4 | 9 | -2 | 11
CCn1c(SCC(=O)Nc2ccc(OC)c(S(=O)(=O)N3CCCCC3)c2)nnc1C1CC1 | -7 | ? | / | 4.9 | 17 | 7 | 6
CCn1c(SCC(=O)Nc2ccccc2F)nnc1-c1cnccn1 | -12 | 5586 | 4 | 2.5 | 15 | 1 | 0
Cc1ccc(N2C(=O)CC(NNc3nc4ccccc4s3)C2=O)cc1C (configuration not stated) | -5 | 1969 | 2 | -1.8 | 5 | 9 | -1
CN(Cc1nc2ccccc2c(=O)[nH]1)C(=O)c1cc(-c2ccc(Br)cc2)nc2ccccc12 | -20 | 3885 | / | -3.2 | -3 | 7 | -3
COc1ccccc1CNC(=O)C1CC(c2c(Cl)cccc2Cl)=NO1 (configuration not stated) | -8 | 3424 | 2 | -2.4 | 0 | 10 | 0
CC(C)(O)C#Cc1ccc(C(=O)NCc2ccccc2F)cc1 | -29 | 3004 | 0 | 2.8 | 7 | 9 | -1
CC1(OC(=O)C2CCCC2)C(=O)C=C2C=C(c3ccsc3)OC=C2C1=O (configuration not stated) | -7 | 3092 | -4 | / | / | / | /
O=C(CN1c2ccccc2Sc2ccccc21)NN=Cc1ccc([N+](=O)[O-])cc1 | / | / | / | -6.7 | 9 | 0 | -2
CC(C)c1ccc(NC2CCCN(C(=O)CCN3CCOCC3)C2)cc1 (configuration not stated) | -23 | 5104 | 8 | 1.2 | 4 | 4 | 8
Cc1ccccc1-n1c(SCC(=O)N2CCOCC2)nc(O)c(Cc2ccccc2)c1=O | -12 | 4635 | 5 | 4.8 | 6 | -6 | 8
O=C(O)c1cccc(C(=O)Cc2ccccc2)c1 | -16 | 3371 | 1 | 5.7 | / | / | -4
CC(C)CN1C(=O)C(=O)N(CC(=O)Nc2cccc(Cl)c2Cl)C1=O | 5 | / | / | -2.3 | 6 | -1 | 3
Cc1cccc(OCCC(=O)Nc2ccc(Cl)cc2F)c1 | -8 | 3955 | -8 | 1.8 | 0 | 1 | -2
COc1ccc(-c2c(-c3ccc(OC)c(F)c3)c3ccccc3n2C)cc1 | -8 | 2964 | / | -11 | -9 | -1 | -1
Cc1ccc(NC(=O)N2CCC(C(=O)NCc3ccc(F)cc3)CC2)cc1 | 0 | 5769 | -4 | 0.1 | -5 | 6 | 0
COc1ccc(NC(=O)COc2ccccc2Cc2ccccc2)cn1 | -30 | 4337 | / | 4.4 | 10 | 3 | -1
COCC(=O)Nc1cccc2ccccc12 | -10 | 3708 | -18 | 4.5 | 7 | 8 | 2
COc1ccccc1-c1nnc(NC(=O)Cc2ccccc2)o1 | -8 | / | -1 | -3.7 | 4 | 3 | -3
Cc1ccc(Cn2c(SCC(=O)NN=Cc3ccccc3OCC(=O)O)nc3ccccc32)cc1 | / | / | / | -2.4 | -9 | -14 | -1

Two entries from above, with two lines to a compound:
Screens in order: PrP 5UTR inh, Bead autofluor, BJeLR lethal, RN4220 kill, Mtb hypoxia inh, Mtb hypoxia inh growth, Sa ugtP lethal
- COc1ccc(NC(=O)COc2ccccc2Cc2ccccc2)cn1
 : -30, 4337, /, 4.4, 10, 3, -1
- O=C(O)c1cccc(C(=O)Cc2ccccc2)c1
 : -16, 3371, 1, 5.7, /, /, -4

Going on with the list.
SMILES | PrP 5UTR inh | Bead autofluor | BJeLR lethal | RN4220 kill | Mtb hypoxia inh | Mtb hypoxia inh growth | Sa ugtP lethal
Cc1cc(=O)oc2cc(NC(=O)Cc3ccccc3[N+](=O)[O-])ccc12 | -36 | 3381 | -5 | 1.9 | 4 | 4 | 3
COc1ccccc1NC(=O)c1ccc(NC(=O)COC(=O)C(C)C)cc1 | -24 | 2413 | -14 | -1.4 | 8 | 15 | -3
COC(=O)Nc1cc(C(=O)c2ccc(Cl)cc2Cl)c[nH]1 | -25 | 3923 | 3 | 0.5 | 17 | -3 | 5
Fc1ccccc1CN1CCN(c2ncccn2)CC1 | -41 | 3966 | 2 | 2.9 | 13 | 4 | 14
Cn1c(Oc2ccc(Cl)cc2)c(C=O)c2ccccc21 | 7 | 2512 | 14 | 2.4 | 16 | 8 | 0
CC(=O)Oc1ccccc1/C=C1\CCOC1=O | -13 | 8653 | -3 | 2.8 | 16 | 12 | -2
Cc1c(C(=O)Nc2cccnc2Cl)oc2ccccc12 | -55 | 5714 | -2 | 5.3 | 16 | 13 | 5
COc1ccc(C(C)=O)cc1COC(=O)CNC(=O)c1cc(C)cc(C)c1 | -34 | 2274 | -3 | 0.6 | 2 | -2 | -3
O=C(N/N=C/c1cc2c(cc1Cl)OCO2)c1cc(-c2ccccc2)n[nH]1 | -22 | 5617 | 11 | / | / | / | /
CC(NC(=O)CN1CCN(CC(=O)Nc2ccccc2Cl)CC1)c1ccc(Br)cc1 (configuration not stated) | -18 | 3251 | / | 1.7 | -3 | 7 | -2
Cc1c(NC(=O)CN2C(=O)C(=O)N(Cc3ccccc3)C2=O)c(=O)n(-c2ccccc2)n1C | -10 | 4502 | -7 | 3.0 | 4 | 4 | 4
CC(=N\O)/C(CN(C)C)=N/O | -12 | 3179 | -1 | / | / | / | /
Cc1c([N+](=O)[O-])c2ccc(O)cc2n1-c1ccccc1 | -5 | 4245 | 1 | / | / | / | /
Cc1ccc(-c2nc3ncccc3o2)cc1NC(=O)c1ccccc1 | -29 | / | -3 | 2.8 | 10 | 1 | -2
COc1cc(C(=O)NC(c2ccccc2)c2ccccc2)cc(OC)c1C | -21 | 3506 | 0 | -0.3 | -5 | -3 | 2
CC(C)Nc1nc(Oc2ccc(=O)n(-c3ccccc3)n2)nc(N(C)C)n1 | -6 | 4074 | -7 | 1.0 | 10 | 3 | -1
CCc1c(O)nc(N2CCN(Cc3ccccc3)CC2)[nH]c1=O | -16 | 4821 | -2 | 2.1 | 2 | 17 | 2
Cc1nc(N2CCOCC2)nc(OCCN(C)C)c1[N+](=O)[O-] | -20 | 2490 | 0 | 2.7 | -5 | -4 | 4
CN(C)S(=O)(=O)N(CC(=O)N1CCN(c2ccccc2F)CC1)c1ccccc1 | -13 | 5835 | -1 | 4.9 | 5 | 6 | 12
CC[C@]1(c2ccccc2OC)C(=O)N(C(=O)OC)N1C(=O)OC | -3 | 3864 | -3 | 8.9 | 11 | 11 | 3
COc1ccc(-c2csc(NC(=O)C3CC(=O)N(c4ccc5c(c4)OCCO5)C3)n2)cc1 (configuration not stated) | -3 | 2475 | -6 | 2.2 | 10 | 6 | 7
O=C(CCN1C(=O)c2cccc3cccc(c23)C1=O)Nc1ccccc1 | 2 | 4872 | -15 | -5.0 | -5 | 5 | -2
O=C(Nc1cccc(S(=O)(=O)NCc2ccco2)c1)c1ccc(Cl)cc1 | -17 | 3284 | / | 0.1 | 4 | -8 | 1
COc1ccccc1CN1C2CCCC1CC(NC(=O)C=Cc1ccccc1)C2 (configuration not stated) | / | / | / | -1.3 | -4 | 15 | 0
O=C(Cn1c(=O)oc2cc(S(=O)(=O)NCc3ccccc3)ccc21)NCc1ccco1 | -9 | 5647 | 4 | -1.1 | -3 | 8 | -13
O=C(CC1C(=O)NCCN1C(=S)Nc1ccccc1)Nc1ccc2c(c1)OCCO2 (configuration not stated) | -10 | 24623* | 3 | 1.4 | 5 | 14 | -2
Cc1ccc(C)c(-c2nnc(NC(=O)CS(=O)(=O)c3ccccc3)o2)c1 | -10 | 5186 | 1 | 13 | -1 | 13 | 6
